Screening data: PubChem, ICCB-Longwood Screening Facility, Harvard Medical School
Anaer choline gr – growth inhibitors of anaerobic choline-fed gram-negatives, minimal medium, absorbance; actives 0.2% (n = 55,000); calls only; Gram-negative bacterium anaerobic choline minimal medium; stronger effect = lower value; many inactives read as strong as hits in the columns shown;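 active = growth z-score on choline under -2 at 7 or 20 h with little or no fall on glycerol, limits in tiers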;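 note: stock transfer was 300 nL into about 50 µL; the organism is E. coli; final concentration not given here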
Anaer choline gr early – also measured in Anaer choline gr; calls as there; z-score; measured here: choline growth z-score, timepoint 1;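 score of optical density at 7 h as mean of two plates; lower means less growth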
Starred values were filed as active, the others as inactive; i = inactive. The list is partial (hit frequency here may not be typical).

SMILES	Anaer choline gr	Anaer choline gr early
NC(=O)C1CCN(c2cc(-c3nc(-c4ccccc4)no3)c3ccccc3n2)CC1	i	0.02
Cc1noc(C)c1S(=O)(=O)N1CCC(CC(=O)NCc2cccnc2)CC1	i	-0.15
CCOC(=O)C1CCN(S(=O)(=O)c2ccc(-c3ccno3)s2)CC1	i	0.92
Cc1nc(C)c(C(=O)N2CCN(c3ccc(-c4noc(C5CCC5)n4)cc3)CC2)s1	i	-0.92
Cc1onc(-c2ccccn2)c1C(=O)NCCc1c[nH]c2ccccc12	i	-0.07
O=C(Nc1ccc(F)cc1)N1CCN(Cc2cc(=O)n3nc(-c4ccc(F)cc4)sc3n2)CC1	i	-0.23
Cc1ccc(-c2nc(CSc3nc(C(F)(F)F)cc(=O)[nH]3)c(C)o2)cc1	i	-1.3
Cc1cc(C)cc(OCC(=O)Oc2cccc(-n3cnnn3)c2)c1	i	0.61
NCCCCCNCC12CC3CC(CC(C3)C1)C2	i	0.47
O=C(Nc1ccc2nc(SCC(=O)N3CCOCC3)sc2c1)c1cccc(Br)c1	i	-0.83
Cc1noc(-c2ccc(-c3noc(Cc4c(F)cccc4Cl)n3)cc2)n1	i	0.48
CN(C(=O)c1cc2c(=O)n3ccccc3nc2s1)c1ccccc1	i	-0.25
Cc1noc(C)c1C1CCCN1Cc1ccc(Br)cc1 (stereo unspecified)	i	-0.43
CCOC(=O)c1c(NC(=O)c2csnn2)sc2c1CCC2	i	1
Cc1ccc(C(=O)NCc2nnc3n2CCCC3)s1	i	-1
Cn1c(=O)sc2cc(S(=O)(=O)N3CCOCC3)ccc21	i	0.04
CCOC(=O)N1CCC2(CC1)N=C(c1ccccc1)CC(c1cc(Cl)ccc1O)N2 (stereo unspecified)	i	-3.6
COc1ccc(N2CC(c3nnc(NC(=O)c4ccccc4)s3)CC2=O)cc1 (stereo unspecified)	i	0.01
Cn1c2c(c(=O)n(C)c1=O)CN(CCc1ccccc1)CN2	i	-1.1
O=C(Nc1ccc2c(c1)OCCO2)C1CCN(C(=O)c2ccc(-c3noc(C4CC4)n3)cc2)CC1	i	-0.08
O=C(Nc1ccc(Cl)cc1)c1nnc(C2CCCN(C(=O)NC3CCCC3)C2)s1 (stereo unspecified)	i	0.16
O=S(=O)(c1ccc2nc(Nc3ccccc3F)ccc2c1)N1CCCCC1	i	1.4
COc1cc(OC)cc(-c2noc(-c3nn(-c4cccc(F)c4)ccc3=O)n2)c1	i	0.01
COC(=O)CC1=CC(SCc2c(F)cccc2Cl)=Nc2ccccc2N1	i	1.2
CCCn1c(C)ccc(-c2noc(CCCC(=O)N3CCN(c4ccccc4F)CC3)n2)c1=O	i	1.3
COc1cc(OC)c(NC(=O)C2CC(=O)N(c3cccc(-c4noc(C)n4)c3)C2)cc1Cl (stereo unspecified)	i	-0.32
O=C(Cn1c(=O)c(CCC(=O)NC2CCCC2)nc2ccccc21)Nc1ccc2c(c1)OCO2	i	1.1
Cc1ccc(-c2noc(-c3cccnc3NC3CCCC3)n2)cc1	i	-0.22
Cc1cccc(-c2c3c(=O)n(C)c(=O)n(C)c3c3n2C(C)(C)COC3c2coc3ccccc3c2=O)c1 (stereo unspecified)	i	-2.4
CC(C)OC(=O)c1sc2nc3c(cc2c1N)CN(Cc1ccccc1)CC3	i	0.94
c1ccc(C(O[C@@H]2CCCN(CCc3ccc4c(c3)OCO4)C2)c2ccccc2)cc1	i	0.4
O=C1COc2ccc(NC(=O)c3ccc(F)cc3)cc2N1	i	-0.87
CCCCN1C(=O)C(C)(C(=O)N2CCN(c3ccccc3F)CC2)Oc2cccnc21 (stereo unspecified)	i	-0.38
CCCn1c(=O)c2c(nc3n2CCN3c2ccc(OC)cc2)n(C)c1=O	i	-0.34
Cc1ccc(-c2csc(-n3[nH]c(C)c(CCC(=O)NC(C)C)c3=O)n2)cc1	i	0.71
Cc1csc(-c2cc(S(=O)(=O)N3c4ccccc4CC3C)c(C)s2)n1 (stereo unspecified)	i	1.1
COc1ccc(Cl)cc1S(=O)(=O)n1ccnc1	i	0.3
CC(C)N1CCN(c2ccc(C(=O)c3c(-c4ccc(O)cc4)sc4cc(O)ccc34)cc2)CC1	i	0.05
Cc1ccc(-c2c(C(=O)Nc3ccc4nn(-c5ccccc5)nc4c3)oc(=O)c3ccccc23)cc1	i	2.6
CCCCCN=C(N)NN=Cc1c[nH]c2ccc(OC)cc12	i	-2.3
COc1ccc(C2C3=C(CC(c4ccccc4O)CC3=O)Nc3onc(C)c32)c(OC)c1 (stereo unspecified)	i	-1.2
CC(=O)Nc1ccc(Cc2nc(-c3cc4c(C)nn(-c5ccccc5)c4s3)no2)cc1	i	1.3
O=C(Nc1ccc2cn[nH]c2c1)c1cccc(N2C(=O)CCS2(=O)=O)c1	i	1.2
Cc1nn(-c2nc3ccccc3n2C)c2c1C(c1cccc(Cl)c1)CC(=O)N2 (stereo unspecified)	i	0.95
CCc1ccc(-c2cn3nc(N4CCC(C(=O)NCc5cccc(Cl)c5)CC4)sc3n2)cc1	i	0.29
O=S(=O)(c1ccc(F)cc1)N1CC(OCc2ccc(F)cc2)C1	i	-0.17
O=S(=O)(Nc1ccccc1)c1ccc2c(c1)-c1oncc1CO2	i	0.05
O=C(CCCc1nc(-c2ccccc2)no1)Nc1ccc(S(=O)(=O)Nc2nccs2)cc1	i	0.28
CN1CCN(C2Cc3ccccc3Sc3ccc(Cl)cc32)CC1 (stereo unspecified)	i	-2.7
CC(C)c1csc(-c2csc(S(=O)(=O)NC3CCCCC3)c2)n1	i	-0.64
COc1ccccc1CNC(=O)c1ncoc1-c1cccc(Cl)c1	i	1.7
O=C(Nc1ccc(Cl)cc1F)c1nc(Nc2ccccc2)c2ccccc2n1	i	-0.3
CC(C)c1ccc2c(c1)CC[C@H]1[C@](C)(CN)CCC[C@]21C	i	-2.8
COc1ccc(C2CC(=O)Nc3c2c(-c2ccccc2)nn3-c2ccccc2)c(OC)c1 (stereo unspecified)	i	0.64
Cc1sc2ncnc(Nc3ccccc3F)c2c1S(=O)(=O)N1CCCCC1	i	1.3
CN(C)C(=O)c1ccc2c(c1)N(CC(=O)NCCCN1CCCC1)C(=O)CO2	i	-0.73
Cc1ccc(C)c(N2CCN(S(=O)(=O)c3cc(-c4cc(C(F)(F)F)[nH]n4)sc3C)CC2)c1	i	0.08
Cc1cc(C)cc(NC(=O)C2CC(=O)Nc3nc(C)nn32)c1 (stereo unspecified)	i	0.59
Cc1cc(-c2c(C)sc(C)c2S(=O)(=O)NC2CCCc3ccccc32)n[nH]1 (stereo unspecified)	i	-0.24
CCC1Cn2c(C(=O)NCC3CCCO3)cc3c(Cl)ccc(c32)O1 (stereo unspecified)	i	1.2

The list continues:
SMILES	Anaer choline gr	Anaer choline gr early
CCCN1C(=O)c2nc3ccccc3n2CC1(C)C(=O)NC1CCC(C)CC1 (stereo unspecified)	i	0.87
O=C(Cn1ncn2nc3c(c2c1=O)CCCC3)NCc1ccc(F)cc1	i	-0.74
O=S(=O)(c1cccc(F)c1)N1CCn2cccc2C1c1ccc(F)c(F)c1 (stereo unspecified)	i	1.1
CCN(CCCNC(=O)CN1C(=O)CC(C)(C)S(=O)(=O)c2ccccc21)Cc1ccccc1	i	0.92
CC1CCN(c2cc(N3CCOCC3)c3c4c(onc24)-c2ccccc2C3=O)CC1	i	-0.02
CCC(C)(C)NC(=O)C1CCCN(S(=O)(=O)c2c(C)noc2/C=C/c2c(C)cc(C)cc2C)C1 (stereo unspecified)	i	1.3
CC(=O)N1N=C(c2c(O)n(C)c(=S)n(C)c2=O)CC1c1ccc(N(C)C)cc1 (stereo unspecified)	i	-1.1
c1ccc(-n2nnnc2Oc2cccc(CNCCN3CCOCC3)c2)cc1	i	-1.3
CCOC(=O)c1c(C)[nH]c(C)c1S(=O)(=O)N1CCCC(C(=O)NCc2cccnc2)C1 (stereo unspecified)	i	-1.3
Cc1ccc(C(=O)CSc2nc3cc(C(=O)NC4CCCC4)ccc3c(=O)n2CC2CCCO2)cc1 (stereo unspecified)	i	0.2
Cc1ccccc1C(=O)NCCc1csc2nc(-c3cccc(F)c3)nn12	i	-0.36
CCC(=O)Nc1cccc(-c2noc(C3CCCN(C(=O)c4ccc(OC)cc4OC)C3)n2)c1 (stereo unspecified)	i	0.39
Cc1nn(-c2ccccc2)c(C)c1CN1CCC(N2CCCCC2)CC1	i	-0.24
CC(C)Cc1nnc(NC(=O)COc2ccccc2-c2nc(C(C)C)no2)s1	i	0.52
CN(C)C(=O)c1csc2nc(-c3ccc(NC(=O)c4ccccc4Cl)cc3)cn12	i	0.4
CC1CCN(S(=O)(=O)c2ccc3c(c2)c(=O)c(C(=O)N2CCc4ccccc42)cn3C)CC1	i	-0.29
O=C(NCC1CCCO1)C1CC(=O)N(c2ccc3c(c2)CCN3C(=O)C2CCC2)C1 (stereo unspecified)	i	-1.1
O=C(C1CCN(S(=O)(=O)c2cc(-c3noc(C4CCC4)n3)cs2)CC1)N1CCOCC1	i	1.6
COCc1nnc(C(=O)Nc2ccc(C(=O)NCCc3c[nH]c4ccc(C)cc34)cc2)s1	i	-0.83
COc1ccc(-c2nc(CCNC(=O)C(C)Oc3cc(C)c(Cl)c(C)c3)cs2)cc1 (stereo unspecified)	i	0.58
C(=C\c1nc(-c2cccc(-c3ccn[nH]3)c2)no1)/c1ccccc1	i	-1.5
CCOc1ccc(NC(=O)N2CCCC2C(=O)O)cc1 (stereo unspecified)	i	-0.04
COc1ccc(-c2cc3n(n2)CCCN(S(=O)(=O)c2ccc4c(c2)CCC4)C3)cc1	i	1.1
Cc1nc(-c2cc(S(=O)(=O)NC3CC3)c(C)n2C)sc1C(=O)N1CCOCC1	i	0.54
Fc1ccc(-c2noc(CSc3ccc(-c4ccccc4F)nn3)n2)cc1Cl	i	0.1
CCc1cc2c(N3CCCC(C(=O)NCCN4CCOCC4)C3)ncnc2s1 (stereo unspecified)	i	-0.03
COc1cc(OC)cc(-c2nc3c4ccccc4n(CC(=O)c4ccc(OC)c(OC)c4)c(=O)n3n2)c1	i	-0.07
Cc1cc(C)c(S(=O)(=O)N2CCc3cc4cccc(C)c4nc32)c(C)c1	i	1.7
O=C(CN1C(=O)CCc2cc(S(=O)(=O)N3CCCC3)ccc21)N1CC=C(c2ccccc2)CC1	i	-0.61
Cc1cc(C)nc(NC(c2cccnc2)c2c(NC(=O)c3ccccc3)sc(C)c2C)n1 (stereo unspecified)	i	-0.88
Cc1cc(N2CCCC2)nc2ccc(NC(=O)C3CCCCC3)cc12	i	-0.23
CCCC1([C@@H](O)C/C=C/[C@H]2C(O)CC(=O)[C@@H]2CCCCCCC(=O)OC)CCC1 (stereo partly specified)	i	0.3
O=C(CC1(CC2=NS(=O)(=O)c3ccccc3N2)CCCC1)NCCc1ccc(Cl)cc1	i	-1.2
COc1ccc(Nc2cc(C(=O)O)nc3c(Cl)cccc23)cc1	i	-0.46
CN(C)C(=O)c1ccc2c(c1)nc(CN1CCN(C(=O)c3ccc(Cl)cc3)CC1)n2C	i	0.96
CC(C)Cn1c(=O)c(-c2ccc(C(=O)N(C)C)cc2)nc2ccccc21	i	-0.25
CCOC(=O)c1nc(NS(=O)(=O)c2ccc(C)cc2)sc1C	i	0.43
O=C(c1cc(-c2cccnc2)n[nH]1)N1CCN(c2ccc(F)cc2)CC1	i	-0.01
COCCOc1cc2ncnc(Cl)c2cc1OCCOC	i	0.56
Cc1[nH]c(C)c(S(=O)(=O)NC2CCCCC2)c1-c1nnc(C2CCC2)o1	i	0.32

An excerpt of these results, comma-delimited.
SMILES,Anaer choline gr,Anaer choline gr early
Cc1cc(C)c(S(=O)(=O)N2CCc3cc4cccc(C)c4nc32)c(C)c1,i,1.7
CCOc1ccc(NC(=O)N2CCCC2C(=O)O)cc1 (stereo unspecified),i,-0.04

Following part:
SMILES	Anaer choline gr	Anaer choline gr early
O=C(CC1CCN(C(=O)c2ccc3oc(-c4ccccc4)nc3c2)CC1)NCc1ccccc1	i	-0.45
COc1cccc(-c2cc(C(F)(F)F)c3c(C)nn(-c4ccc(Cl)cc4)c3n2)c1	i	0.14
Cc1ccc(NC(=O)N2CCC(n3cnc4ccccc4c3=O)CC2)cc1C	i	1.2
Cc1cc(N2CCOCC2)nc2ccc(NC(=O)NC(C)C)cc12	i	-0.73
CCS(=O)(=O)c1nc2ccc(NS(=O)(=O)c3ccc(F)cc3)cc2s1	i	-0.19
CCCc1cc(=O)n2[nH]c(CNc3cc(Cl)ccc3OC)nc2n1	i	-0.2

Molecules from the list above that contain an NH in an aromatic ring (13):
SMILES	Anaer choline gr	Anaer choline gr early
Cc1onc(-c2ccccn2)c1C(=O)NCCc1c[nH]c2ccccc12	i	-0.07
Cc1ccc(-c2nc(CSc3nc(C(F)(F)F)cc(=O)[nH]3)c(C)o2)cc1	i	-1.3
Cc1ccc(-c2csc(-n3[nH]c(C)c(CCC(=O)NC(C)C)c3=O)n2)cc1	i	0.71
CCCCCN=C(N)NN=Cc1c[nH]c2ccc(OC)cc12	i	-2.3
O=C(Nc1ccc2cn[nH]c2c1)c1cccc(N2C(=O)CCS2(=O)=O)c1	i	1.2
Cc1ccc(C)c(N2CCN(S(=O)(=O)c3cc(-c4cc(C(F)(F)F)[nH]n4)sc3C)CC2)c1	i	0.08
Cc1cc(-c2c(C)sc(C)c2S(=O)(=O)NC2CCCc3ccccc32)n[nH]1 (stereo unspecified)	i	-0.24
CCOC(=O)c1c(C)[nH]c(C)c1S(=O)(=O)N1CCCC(C(=O)NCc2cccnc2)C1 (stereo unspecified)	i	-1.3
COCc1nnc(C(=O)Nc2ccc(C(=O)NCCc3c[nH]c4ccc(C)cc34)cc2)s1	i	-0.83
C(=C\c1nc(-c2cccc(-c3ccn[nH]3)c2)no1)/c1ccccc1	i	-1.5
O=C(c1cc(-c2cccnc2)n[nH]1)N1CCN(c2ccc(F)cc2)CC1	i	-0.01
Cc1[nH]c(C)c(S(=O)(=O)NC2CCCCC2)c1-c1nnc(C2CCC2)o1	i	0.32
CCCc1cc(=O)n2[nH]c(CNc3cc(Cl)ccc3OC)nc2n1	i	-0.2
